Six1-Eya2 inh: Six1/Eya2 interaction inhibition; AlphaScreen GST-Six1/His-Eya2 binding, biochemical; active compounds read low; control for the full effect not named in the record; activity change, % (concentration not given with the values); 0.56% of 360,000 active; in the data active = activity change below about -65%; inconclusive = about -30% to -65%; inactive = above about -30%; note: % is set by controls: 0 for no effect and ±100 for the full control effect
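Compounds are tested against tagged Six1 and Eya2 proteins bridged by glutathione donor and nickel acceptor beads; after a one-hour incubation at 37 °C without light, AlphaScreen emission is recorded.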
D2 ag: human D2 receptor agonism in beta-arrestin assay. P14416. DiscoveRx PathHunter D2 beta-arrestin, luminescence, 90 min; 100% = 57 uM dopamine signal. activation, % (no concentration beside the values). 0.084% of 360,000 active. AID 624465; in the data active = activation above about 40%; inconclusive = about 15% to 40%; inactive = below about 15%; note: compound concentration not given in the record; the text of the record calls up to 30% inactive
Target sequence (P14416 whole entry, looked up): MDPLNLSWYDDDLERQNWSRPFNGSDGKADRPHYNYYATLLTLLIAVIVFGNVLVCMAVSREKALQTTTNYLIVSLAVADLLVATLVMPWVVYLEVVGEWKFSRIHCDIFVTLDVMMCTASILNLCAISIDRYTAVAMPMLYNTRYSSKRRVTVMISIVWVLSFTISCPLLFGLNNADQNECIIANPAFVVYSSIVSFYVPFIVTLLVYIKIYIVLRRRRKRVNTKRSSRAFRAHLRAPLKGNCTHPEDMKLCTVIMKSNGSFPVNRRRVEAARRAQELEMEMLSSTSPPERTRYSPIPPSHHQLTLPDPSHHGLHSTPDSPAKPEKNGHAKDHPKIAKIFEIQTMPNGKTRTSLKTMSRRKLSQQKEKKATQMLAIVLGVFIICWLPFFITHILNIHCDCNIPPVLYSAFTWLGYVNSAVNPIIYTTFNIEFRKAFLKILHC
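Agonist mode: compounds alone added to overnight-plated D2 PathHunter cells for 90 min at 37 C, with 57 uM final dopamine (EC100) defining full response. Beta-arrestin recruitment detected by chemiluminescent reagent, read after 1 h at ambient temperature.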
TRPML1 inh: inhibitors of human TRPML1 channel; Q9GZU1; TRPML1-inducible cells, Ca2+ dye fluorescence, FDSS; active compounds read low; inhibition of EC80 agonist-evoked calcium signal; activity change, negative = inhibition, % (concentration not given with the values); 0.02% of 390,000 active; in the data active means activity change below about -50%; inconclusive means about -30% to -50%; inactive means above about -30%;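 note: stimulus is agonist 54-4 at its EC80 concentration; % is set by controls: 0 for no effect and ±100 for the full control effect; the text of the record puts the active cut at -80%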
Target sequence (Q9GZU1 whole entry, looked up): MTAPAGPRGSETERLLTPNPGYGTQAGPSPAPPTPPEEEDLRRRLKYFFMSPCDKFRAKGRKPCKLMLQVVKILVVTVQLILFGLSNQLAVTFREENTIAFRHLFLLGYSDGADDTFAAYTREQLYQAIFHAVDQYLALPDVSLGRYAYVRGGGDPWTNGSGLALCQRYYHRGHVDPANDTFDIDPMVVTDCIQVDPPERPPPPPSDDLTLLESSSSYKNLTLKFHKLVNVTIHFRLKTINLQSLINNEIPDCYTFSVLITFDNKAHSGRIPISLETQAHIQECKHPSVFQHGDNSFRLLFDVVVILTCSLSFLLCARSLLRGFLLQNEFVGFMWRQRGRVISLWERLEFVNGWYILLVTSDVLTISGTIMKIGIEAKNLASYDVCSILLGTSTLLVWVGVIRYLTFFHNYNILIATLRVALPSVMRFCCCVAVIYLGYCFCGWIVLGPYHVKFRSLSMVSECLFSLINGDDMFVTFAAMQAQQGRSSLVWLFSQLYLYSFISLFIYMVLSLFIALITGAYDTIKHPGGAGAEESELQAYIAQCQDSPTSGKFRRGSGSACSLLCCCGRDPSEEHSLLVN
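TRPML1-DL cells, Tet-induced overnight (~16 h, 37 °C) at 1,500 cells/well, were loaded with Ca8 no-wash dye plus quencher for 45-90 min at room temperature. Compounds were pinned during FDSS kinetic reading; agonist 54-4 at EC80 (4 uM final) then added.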
CtBP-E1A blk: CtBP/E1A binding inhibition; AID 651724; activity change, % (concentration not given with the values); 0.49% of 340,000 active; AlphaScreen GST-E1A/His-CtBP binding, 1536-well; active compounds read low; control for the full effect not named in the record; in the data active means activity change below about -65%; inconclusive means about -30% to -65%; inactive means above about -30%; note: % is set by controls: 0 for no effect and ±100 for the full control effect
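Protein mix (5X: 125 nM each GST-E1A, His-CtBP) was incubated with pinned compound 2 h at 37 deg C in dark, in 50 mM Tris pH 8.0 buffer with 300 mM NaCl. Glutathione donor and nickel acceptor beads followed; AlphaScreen signal read after 1 h.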
PINK1 expr mod: PINK1 expression modulation; Potency, µM (titrated, usually from 76.6 µM), for inactives: at the highest dose activation (PINK1 increase), most hits filed as activators; AID 624263; PINK1 immunofluorescence, high-content cytometry, 24 h; 0.2% of 410,000 active; active = well fitted activation curve with a large enough effect; inconclusive = small, poorly fitted or top-dose-only effect; inactive = flat fitted curve, though single readings scatter; cell line not stated here;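 note: potency is the fitted concentration of half-maximal effect; % of control where 0% means no effect; nearly all actives have a fitted effect of over 65% in size; a mitochondrial uncoupler was the plate control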
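Fluorescence from anti-PINK1 antibody, together with nuclear and cell stains, was scanned on a laser-scanning cytometer. Before staining, stable-line cells were incubated 24 hours with compounds at 5 concentrations; primary antibody 12 h at 10 degrees C.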
TRPML1 agonist: human mucolipin-1 channel agonism | Q9GZU1 | AID 624414 | 0.12% of 410,000 active | activation, % (no concentration beside the values) | TRPML1-expressing cells, Ca2+ dye fluorescence, FDSS; host cell line not named in the record; reference of the full effect not given here; in the data active = activation above about 50%; inconclusive = about 30% to 50%; inactive = below about 30%; note: 0% is about no effect; the text of the record puts the active cut at 80%
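Cells: TRPML1-DL, 1X Tet inducer, ~16 h at 37 degrees C/5% CO2. Dye: ABD Ca8 no-wash + quencher, 45-90 min RT. Read: 10 s baseline, compound add, 110 s agonist phase; 54-4 EC80 (4uM final), 110 s antagonist phase.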
* hit, by the source's call; ? = inconclusive; / = no result given; & = joins results of further samples; [ ] = dose if it differs, or a comment.

mol,Six1-Eya2 inh,D2 ag,TRPML1 inh,CtBP-E1A blk,PINK1 expr mod,TRPML1 agonist
Cc1cc(C(F)F)n2nc(C(=O)Nc3sc4c(c3C(N)=O)CCC4)nc2n1,?,-3.8,5,4,7.0%,3.2
CC(=O)Nc1ccccc1C(=O)C(=O)O,3,-9.3,7,5,-1.5%,-0.7
Cc1ccc(Nc2nnc(SC(C)C(=O)Nc3c(C)n(C)n(-c4ccccc4)c3=O)s2)cc1 (stereo not given),0,-0.9,23,2,-0.7%,-0.6
COc1cc(S(=O)(=O)N2CCN(c3ccccn3)CC2)ccc1Br,-18,-2.5,17,4,2.4%,0.5
COc1ccc(CCN(C(=O)COc2ccccc2)c2nc(-c3ccccc3)cs2)cc1OC,-13,-5.4,49,-9,2.1%,0.9
CCc1ccccc1NC(=S)N(CCN1CCOCC1)C1CCN(C(C)=O)CC1,3,-3.8,7,-11,1.9%,-0.3
CCCCN(CC)Cc1c(C)[nH]c2c(ccc3ccccc32)c1=O,-8,-7.7,19,5,6.3%,-1.0
COCCn1c(SCC(=O)c2[nH]c(C)c(C(C)=O)c2C)nc2ccccc2c1=O,-5,-4.3,-3,/,3.4%,0.1
CCN(C(=O)c1ccc(C)c(Br)c1)c1ccccc1,4,-1.5,11,0,2.3%,0.2
CC(C)N(N=Nc1ccc([N+](=O)[O-])cc1)C(C)C,-8,7.4,-17,/,12%,2.2
COc1cc2ccccc2cc1C(=O)O,13,2.9,-2,6,-0.9%,-0.4
CC(C)COC(=O)C1C2C=CC3(CN(C(C)c4ccc(Br)cc4)C(=O)C13)O2 (stereo not given),5,1.8,-4,5,1.4%,0.1
CCOc1ccc(CCNC(=O)CN2C(=O)c3cccnc3Oc3ccc(Cl)cc32)cc1,8,2.5,-6&1,-10,1.1%&1.8%,0.9&3.3
O=C(CC1NCCNC1=O)Nc1ccc([N+](=O)[O-])cc1 (stereo not given),6,-11,-1,/,-0.4%,-0.5
OC1CCN(Cc2cn(Cc3ccccc3)nc2-c2cc3ccccc3o2)CC1,-9,-6.3,20,-6,-0.3%,-0.1
C/C=C/Cn1c(Br)nc2c1c(=O)[nH]c(=O)n2C,-1,-1.1,51,5,0.5%[38.3 µM],-0.5
CCOc1ccccc1-c1noc(CCCC(=O)Nc2cccc(C(F)(F)F)c2)n1,/,/,-3,/,0.8%,1.0
CC(=O)Nc1ccc(S(=O)(=O)N2CCC(C(=O)NCCC(=O)NCc3ccncc3)CC2)cc1,5,1.0,-10,-1,-0.1%,-0.5
Cc1ccc(N2C(=O)Cc3ccccc3C2=O)cc1,9,-4.3,-2,-2,-0.5%,0.4
CCN(CC)S(=O)(=O)c1ccc(NCCCn2ccnc2)c([N+](=O)[O-])c1,-9,3.8,3,1,-0.1%,1.2
COc1ccc(-c2csc(NC(=O)c3cccc(N4C(=O)CCC4=O)c3)n2)cc1OC,-16,2.3,-1,11,1.7%,-0.5
CC(Sc1nnc(COc2ccc(Cl)cc2)n1Cc1ccco1)C(=O)N1CCNC1=O (stereo not given),0,5.9,4,-28,0.1%,-0.3
CSc1ncc(Cl)c(C(=O)Nc2nnc(SC)s2)n1,6,-0.7,1,-1,-1.7%,-0.5
COc1cc(CN2CCC(CO)(CCOc3ccccc3)CC2)cc(OC)c1OC,-5,-6.3,29,/,0.6%,0.7
COc1cccc(CNC(=O)CCC2CCCN(c3cc(C)nc(N(C)C)n3)C2)c1 (stereo not given),-3,3.1,-13,7,-1.3%,0.1
CCn1cc(CNCc2cn(C)nc2-c2ccc(C3CCCCC3)cc2)cn1,-1,0.2,12,2,-0.6%,2.9
CCn1cc([C@@H]2C[C@H]3CN(Cc4cccc(Cl)c4)C(=O)[C@]34CCCN24)c(C)n1,5,-0.6,25,11,2.7%,0.9
Cc1ccc(S(=O)(=O)NC(C)(C)C)cc1C(=O)OCC(=O)N1CCCC1=O,3,-2.2,-7,-1,0.3%,-0.3
COc1cc(S(=O)(=O)NCc2ccccc2)ccc1Br,5,-0.1,1,8,3.3%,0.1
C#CCOCCOCCOCCNc1nc(N2CCN(C(=O)[C@H](CC(N)=O)n3cc(C(N)[C@@H](C)CC)nn3)CC2)nc(N2CCN(C(=O)[C@H](CCC(=O)O)n3cc([C@@H](N)CCCCN)nn3)CC2)n1 (stereo not given in full),-8,0.3,7,-10,-1.2%,0.1
Cc1[nH]c2ccc(F)cc2c1CCNC(=O)c1cc2cc(Cl)ccc2oc1=O,/,/,19,/,5.9%,3.4
COc1cc(NS(=O)(=O)c2ccc(NS(=O)(=O)c3ccc(NC(C)=O)cc3)cc2)nc(OC)n1,-11,-2.1,1,-13,2.3%,-0.4
COc1cccc(OCCCCCN2CCOCC2)c1,2,-2.6,17,4,2.9%[38.3 µM],1.3
O=C(c1ccc(Cl)c(Cl)c1)c1cnc(Nc2ccccc2)s1,7,-2.1,-10,-3,-0.9%[38.3 µM],0.1
CCOC(=O)N1CCN(C(=O)CCC(=O)c2ccc(OCC)cc2)CC1,11,5.0,17,5,-0.3%,0.2
CCCNC(=O)C(=O)NCC(c1ccc2c(c1)OCO2)N1CCOCC1 (stereo not given),/,/,0,/,-2.1%,-0.3
CCOc1ccc(NCc2cccn2-c2nnc(N3CCC(C(=O)NCCc4ccc(OC)c(OC)c4)CC3)s2)cc1,/,/,-2,/,0.7%,2.8
O=C(CCC1CCCCC1)NC1=NCCS1,9,1.3,15,6,1.6%,-0.5
CCOc1ccccc1N(CC(=O)Nc1ccc(S(=O)(=O)N2CCOCC2)cc1)S(C)(=O)=O,-2,-1.7,4,0,1.2%,1.3
CN(CCC1CCOCC1)C(=O)C1CCC(=O)N(CCc2ccc(Cl)cc2)C1 (stereo not given),-9,-3.8,27,-1,2.1%,-0.2
CCOc1cc(CNc2ccc(N3CCCC3)cc2)cc(Cl)c1OC,?,6.2,0,-20,?,1.5
Cn1c(SCC(=O)c2ccc3c(c2)NC(=O)CO3)nc2ccccc21,-1,4.8,-15,6,-0.4%,0.0
Cc1cc(C)n(C(CC(=O)O)C(=O)O)n1 (stereo not given),0,-1.6,-8,10,-1.8%,0.8
CCn1ccc(C(=O)Nc2ncc(C)s2)n1,3,-0.5,7,1,0.1%,-0.6
COc1ccc(S(=O)(=O)NCCN2CCOCC2)c2ccccc12,-1,-1.3,-15,7,/,0.3
Cc1ccc(NC(=O)C2C(c3ccccc3)C=CC(c3ccccc3)C2C(=O)O)cc1 (stereo not given),-1,-0.4,-7,-8,-1.5%,-1.0
Cc1ccc(C23CC4CC(CC(C(N)=O)(C4)C2)C3)cc1,8,-1.7,14,-2,1.8%,-1.3
CN(C)c1nc(N)nc2c1ncn2C1OC(CO)CC1O (stereo not given),-4,-5.1,/,-2,0.5%,-0.2
CSc1cccc(NC(=S)NCCCO)c1,-1,-6.0,-8,-9,-0.4%,1.3
CCN(CC(=O)Nc1ccccc1C(F)(F)F)C(=O)c1cc(-c2cccs2)nn1-c1ccccc1,14,-3.6,-5,-1,3.0%,1.8

Additional compounds
mol,Six1-Eya2 inh,D2 ag,TRPML1 inh,CtBP-E1A blk,PINK1 expr mod,TRPML1 agonist
COc1ccc(NC(=O)CCNS(=O)(=O)c2cccc3nonc23)cc1Cl,-6,0.4,?,-5,7.6%,-0.8
CCOC(=O)c1ccc(NC(=S)P(=O)(c2ccccc2)c2ccccc2)cc1,-3,-5.3,10,2,3.0%,-0.6
CCOC(=O)N1CCN(C(=O)Cn2cnc3ccccc3c2=O)CC1,4,-17,-13,-20,1.0%,1.2
COc1ccc(/C=N\NC(=O)/C(=C\Nc2nccc(C)n2)NC(=O)c2ccccc2)cc1,-3,-1.7,-17,1,0.8%,-0.8
O=C1C=C(c2ccc(-c3ccccc3)c(F)c2)C[C@@H](c2ccc3c(c2)OCO3)C1,-7,-1.6,3,0,0.9%,-0.6
Cc1cc(C(=O)CSc2nnc(N)s2)c(C)n1-c1c(C)n(C)n(-c2ccccc2)c1=O,6,-3.7,-3,7,-1.4%,1.0
Cc1ccc(Cn2ncc3c(N4CCOCC4)ncnc32)cc1,-2,-0.8,0,6,/,-0.3
Cc1cc(OCC(=O)NCc2ccncc2)c2c(C)c(C)c(=O)oc2c1,0,0.6,0,3,4.2%,1.2
O=C(C1CC1)N1CCC(Oc2cccc(C(=O)N3CCCCC3CCO)c2)CC1 (stereo not given),3,-2.3,-15,4,0.4%,-0.6
Cc1ccc(NC(=O)CCn2cnc3ccccc3c2=O)cc1Cl,6,2.6,2,-3,3.5%,0.2
CC(C)c1ccc(NC(=O)C(c2ccccc2)N2CCC3(CC2)OCCO3)cc1 (stereo not given),0,-0.5,-8,4,-1.7%,0.2
COc1ccc(S(=O)(=O)N2CCCC2CNC(=O)C(=O)Nc2cccc(F)c2)cc1 (stereo not given),-1,-4.3,12,-4,1.6%,-0.9
Cc1cccc2c(=O)c(C(=O)NCc3ccc(F)cc3)c[nH]c12,-7,-4.4,-5,-1,7.0%,0.1
COc1ccc(OC)c(S(=O)(=O)N2CC=C(c3c(C)n(CC(=O)N4CCCC4)c4ccccc34)CC2)c1,/,/,-21,/,3.7%,0.8
O=c1oc2ccccc2c(Nc2ccccc2)c1[N+](=O)[O-],6,-1.0,23,3,-1.1%,-0.3
CC(=O)Nc1ccc(S(=O)(=O)N(C)S(=O)(=O)c2ccc(F)cc2)cc1,-1,-1.8,3,2,29%[38.3 µM],-0.7
O=C1N=C(N2CCC(Cc3ccccc3)CC2)S/C1=C/c1cn[nH]c1-c1ccccc1,-16,0.9,11,-15,-4.3%[38.3 µM],0.3

Arranged by length of the SMILES (lowest first): some entries from above
mol,Six1-Eya2 inh,D2 ag,TRPML1 inh,CtBP-E1A blk,PINK1 expr mod,TRPML1 agonist
Cc1ccc(NC(=O)CCn2cnc3ccccc3c2=O)cc1Cl,6,2.6,2,-3,3.5%,0.2
Cc1cccc2c(=O)c(C(=O)NCc3ccc(F)cc3)c[nH]c12,-7,-4.4,-5,-1,7.0%,0.1
O=C(C1CC1)N1CCC(Oc2cccc(C(=O)N3CCCCC3CCO)c2)CC1 (stereo not given),3,-2.3,-15,4,0.4%,-0.6
CC(C)c1ccc(NC(=O)C(c2ccccc2)N2CCC3(CC2)OCCO3)cc1 (stereo not given),0,-0.5,-8,4,-1.7%,0.2
CC(=O)Nc1ccc(S(=O)(=O)N(C)S(=O)(=O)c2ccc(F)cc2)cc1,-1,-1.8,3,2,29%[38.3 µM],-0.7
O=C1N=C(N2CCC(Cc3ccccc3)CC2)S/C1=C/c1cn[nH]c1-c1ccccc1,-16,0.9,11,-15,-4.3%[38.3 µM],0.3
COc1ccc(OC)c(S(=O)(=O)N2CC=C(c3c(C)n(CC(=O)N4CCCC4)c4ccccc34)CC2)c1,/,/,-21,/,3.7%,0.8

Screening data (PubChem BioAssay)
